HSV replic up: HSV replication enhancement. HSV replication augmentation in cells, fold increase. maximum fold increase. 0.005% of 220,000 active. AID 1956;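 active = peak rise of 1.5-fold or more in the series; tested in PC3 cells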;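 also: first round at 10 µM; read as green reporter fluorescence; hits show the peak of a series up to 25 µM; 1 = signal of infected wells without compound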
PKD1 inh: inhibitors of human PKD1 kinase; Q15139; PKD1 kinase fluorescence polarization assay; inhibition, %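 (about 10 µM by stock and volumes)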; 0.056% of 200,000 active;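 active = inhibition of 50% or more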;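 also: controls were vehicle for no effect and a reference inhibitor for full effect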
Insulin prom inh: TRM-6 insulin promoter activity inhibition | inhibition, % at 2 µM | 0.9% of 130,000 active | TRM-6 cells (human fetal islet line), insulin promoter-eGFP reporter, imaging; reporter expression induced with tamoxifen;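 active = inhibition above the mean plus 3 SD, with well images judged a real hit on visual review, cut at about 60% in these data, passing the limit was not always enough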
GALR2 ag: activates the human galanin receptor 2. activation, %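 (tested at 5 µM)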. O43603. GALR2-expressing cells, agonist activation read-out. AID 803. 0.48% of 140,000 active;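 active = above mean plus 3 SD of all compounds, about 5% in these data, not always enough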;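 also: 0% = vehicle buffer wells and 100% = reference agonist at full effect; tested in CHO reporter cells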
Target sequence (O43603 whole entry, looked up): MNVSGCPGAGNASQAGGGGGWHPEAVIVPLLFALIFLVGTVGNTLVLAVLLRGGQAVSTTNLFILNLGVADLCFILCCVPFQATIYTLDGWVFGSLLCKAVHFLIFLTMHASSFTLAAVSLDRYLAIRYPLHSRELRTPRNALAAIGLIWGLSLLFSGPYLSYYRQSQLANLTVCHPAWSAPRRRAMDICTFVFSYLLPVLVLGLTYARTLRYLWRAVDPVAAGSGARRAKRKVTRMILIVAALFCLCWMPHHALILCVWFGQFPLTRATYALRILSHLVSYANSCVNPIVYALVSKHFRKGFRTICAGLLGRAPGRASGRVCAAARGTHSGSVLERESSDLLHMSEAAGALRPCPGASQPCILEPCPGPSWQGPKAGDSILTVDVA
RGS16-Gao: RGS16-Galphao interaction regulator (human); AID 1441; O15492+P09471; bead-based flow cytometry RGS16-Galphao binding, fluorescence; actives lie on both sides; binding response (% of control), % at 10 µM; 0.38% of 220,000 active;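 active = below 25% or above 175%, edge rows of some plates excepted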;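 also: Galphao activated by GDP with aluminum fluoride before binding; 100% = wells without compound and 0% = beads without RGS; some results beyond the cut were filed as inactive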
Target sequence (O15492 whole entry, looked up): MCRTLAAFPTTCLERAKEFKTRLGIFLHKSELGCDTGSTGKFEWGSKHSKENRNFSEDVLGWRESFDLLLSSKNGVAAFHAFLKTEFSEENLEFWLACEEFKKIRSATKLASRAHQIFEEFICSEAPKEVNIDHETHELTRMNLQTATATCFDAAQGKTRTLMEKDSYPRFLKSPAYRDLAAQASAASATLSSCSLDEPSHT
Target sequence (P09471 whole entry, looked up): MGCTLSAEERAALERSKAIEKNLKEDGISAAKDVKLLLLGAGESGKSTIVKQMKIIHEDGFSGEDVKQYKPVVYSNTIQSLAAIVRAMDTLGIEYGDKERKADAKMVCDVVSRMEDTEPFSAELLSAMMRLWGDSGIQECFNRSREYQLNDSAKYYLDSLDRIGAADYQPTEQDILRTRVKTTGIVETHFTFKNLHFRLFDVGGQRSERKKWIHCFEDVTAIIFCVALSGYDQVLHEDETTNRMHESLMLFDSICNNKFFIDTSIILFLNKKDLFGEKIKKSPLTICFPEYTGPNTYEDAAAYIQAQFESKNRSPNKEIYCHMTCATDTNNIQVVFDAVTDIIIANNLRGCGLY
Insulin prom inh cell count: second read-out of Insulin prom inh, no call of its own (marks repeat the call); normalized cell count, %; measured here: cell count, toxicity; reference of the scale not given here;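 cells exposed to compound for 48 h; stained nuclei by imaging scaled within each plate; lower means fewer cells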
HSV replic up primary fold: recorded beside HSV replic up, whose call it bears; fold increase; compound at 10 µM; measured here: primary screen fold increase 10 uM; tested in PC3 cells;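 GFP signal in the first replicate; 1 = infected wells without compound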
* hit, by the source's call. Rows were taken by chance. Share with any hit: about 1.3%.

`O=C(OCC(=O)N1CCN(c2ccccc2)CC1)c1ccc2ncsc2c1` gave HSV replic up inactive, PKD1 inh 1, Insulin prom inh -15, GALR2 ag -2.2, RGS16-Gao 85, Insulin prom inh cell count 154 and HSV replic up primary fold 0.93.
Screening Cc1ccc(C)c(-n2nnnc2Sc2nc([N+](=O)[O-])nn2C)c1 returned HSV replic up inactive, PKD1 inh -7, Insulin prom inh 11, GALR2 ag -2.4, RGS16-Gao 82, Insulin prom inh cell count 112 and HSV replic up primary fold 0.9.
`COc1ccc(C(=O)NNC(=O)CCC(=O)Nc2cc(C)on2)cc1` gave HSV replic up inactive, PKD1 inh -6, Insulin prom inh 18, GALR2 ag -0.6, RGS16-Gao 101, Insulin prom inh cell count 151 and HSV replic up primary fold 1.1.
`O=C(N[C@@H](Cc1ccccc1)c1nc2ccccc2[nH]1)c1cc([N+](=O)[O-])ccc1Cl` gave HSV replic up inactive, PKD1 inh 5, Insulin prom inh -18, GALR2 ag -0.2, RGS16-Gao 105, Insulin prom inh cell count 100 and HSV replic up primary fold 0.8.
Screening CC(=O)c1cc(-c2ccccc2)n(CC(=O)N2CCCC2)c1C returned HSV replic up inactive, PKD1 inh 1, Insulin prom inh 7, RGS16-Gao 105, Insulin prom inh cell count 121 and HSV replic up primary fold 0.96.
For CC(=O)c1c(C)oc2ccc(N(C(C)=O)S(=O)(=O)c3ccc(Cl)c([N+](=O)[O-])c3)cc12 the results were HSV replic up inactive, PKD1 inh 48, GALR2 ag -2.7, RGS16-Gao 99 and HSV replic up primary fold 0.76.
Cc1[nH]nc(SCC(=O)NC(C)c2ccccc2)c1[N+](=O)[O-] (configuration not stated) was read as HSV replic up inactive, PKD1 inh -8, Insulin prom inh -111, GALR2 ag 0.0, RGS16-Gao 99, Insulin prom inh cell count 160 and HSV replic up primary fold 0.93.
`Cc1ccc(C(c2nnnn2CCc2ccccc2)N2CCC(C)CC2)cc1` (configuration not stated) gave HSV replic up inactive, PKD1 inh -6, Insulin prom inh -100, GALR2 ag -3.0, RGS16-Gao 104, Insulin prom inh cell count 65 and HSV replic up primary fold 0.99.
For CC1(C(O)(C#CC[N+]2(C)CCCCC2)c2ccccc2)CCCC1 (configuration not stated) the results were HSV replic up inactive, PKD1 inh 3, Insulin prom inh -42, RGS16-Gao 92, Insulin prom inh cell count 120 and HSV replic up primary fold 0.93.
COc1ccc(C(C)=O)cc1COC(=O)Cc1n[nH]c(=O)c2ccccc12 was read as HSV replic up inactive, PKD1 inh -7, Insulin prom inh -31, GALR2 ag 0.0, RGS16-Gao 101, Insulin prom inh cell count 104 and HSV replic up primary fold 0.85.
Screening OCc1ccccc1CNCc1ccccc1 returned HSV replic up inactive, PKD1 inh 7, Insulin prom inh 0, GALR2 ag -0.8, RGS16-Gao 93, Insulin prom inh cell count 148 and HSV replic up primary fold 1.
O=S(=O)(Nc1ccc(-n2cnnn2)cc1)c1ccc(F)c(F)c1F was read as HSV replic up inactive, RGS16-Gao 91 and HSV replic up primary fold 1.1.
For Cc1c(C)n(C(=O)CSc2nc3ccccc3[nH]2)c2ccccc12 the results were HSV replic up inactive, PKD1 inh -1, Insulin prom inh -6, GALR2 ag 0.0, RGS16-Gao 100, Insulin prom inh cell count 99 and HSV replic up primary fold 0.89.
CCOC(=O)C1=C(O)CSC1=Nc1ccc(C)cc1 was read as HSV replic up inactive, PKD1 inh 4, Insulin prom inh -19, RGS16-Gao 95, Insulin prom inh cell count 70 and HSV replic up primary fold 0.97.
Screening COc1cc(NC(=S)NCCCN(C)C)c(OC)cc1NC(=O)c1ccco1 returned HSV replic up inactive, RGS16-Gao 92 and HSV replic up primary fold 0.85.
For COc1cccc(CC(=O)Nc2ccccc2C(=O)N2CCOCC2)c1 the results were HSV replic up inactive, PKD1 inh 1, Insulin prom inh -29, GALR2 ag -0.6, RGS16-Gao 94, Insulin prom inh cell count 133 and HSV replic up primary fold 0.93.
Screening O=C(O)C1C2CC2CN1C(=O)c1ccc(Cl)cc1Cl (configuration not stated) returned HSV replic up inactive, PKD1 inh 4, RGS16-Gao 107 and HSV replic up primary fold 1.2.
`CCOC(=O)C1=C(C)NC(=O)NC1c1ccc(N(C)C)cc1` (configuration not stated) gave HSV replic up inactive, PKD1 inh -4, GALR2 ag -1.1, RGS16-Gao 104 and HSV replic up primary fold 1.1.
Screening O=C(O)CCCC(=O)NCc1c(Cl)cccc1Sc1ccc(Cl)cc1 returned HSV replic up inactive, RGS16-Gao 104 and HSV replic up primary fold 0.99.
`COc1cccc(N2C(=O)[C@H]3C(C(=O)c4cnccn4)=NN[C@H]3C2=O)c1` gave HSV replic up inactive, RGS16-Gao 93 and HSV replic up primary fold 1.1.

Two entries drawn at random from those above:
Screening O=C(O)C1C2CC2CN1C(=O)c1ccc(Cl)cc1Cl (configuration not stated) returned HSV replic up inactive, PKD1 inh 4, RGS16-Gao 107 and HSV replic up primary fold 1.2.
Screening OCc1ccccc1CNCc1ccccc1 returned HSV replic up inactive, PKD1 inh 7, Insulin prom inh 0, GALR2 ag -0.8, RGS16-Gao 93, Insulin prom inh cell count 148 and HSV replic up primary fold 1.

Arranged by count of non-hydrogen atoms (highest first): part of the list above
Screening COc1cc(NC(=S)NCCCN(C)C)c(OC)cc1NC(=O)c1ccco1 returned HSV replic up inactive, RGS16-Gao 92 and HSV replic up primary fold 0.85.
`COc1cccc(N2C(=O)[C@H]3C(C(=O)c4cnccn4)=NN[C@H]3C2=O)c1` gave HSV replic up inactive, RGS16-Gao 93 and HSV replic up primary fold 1.1.
Screening O=C(O)CCCC(=O)NCc1c(Cl)cccc1Sc1ccc(Cl)cc1 returned HSV replic up inactive, RGS16-Gao 104 and HSV replic up primary fold 0.99.
O=S(=O)(Nc1ccc(-n2cnnn2)cc1)c1ccc(F)c(F)c1F was read as HSV replic up inactive, RGS16-Gao 91 and HSV replic up primary fold 1.1.
`CCOC(=O)C1=C(C)NC(=O)NC1c1ccc(N(C)C)cc1` (configuration not stated) gave HSV replic up inactive, PKD1 inh -4, GALR2 ag -1.1, RGS16-Gao 104 and HSV replic up primary fold 1.1.
Screening O=C(O)C1C2CC2CN1C(=O)c1ccc(Cl)cc1Cl (configuration not stated) returned HSV replic up inactive, PKD1 inh 4, RGS16-Gao 107 and HSV replic up primary fold 1.2.
Screening OCc1ccccc1CNCc1ccccc1 returned HSV replic up inactive, PKD1 inh 7, Insulin prom inh 0, GALR2 ag -0.8, RGS16-Gao 93, Insulin prom inh cell count 148 and HSV replic up primary fold 1.

Next part.
`COc1cccc(NC(=O)CC2(CC(=O)O)CCCC2)c1` gave HSV replic up inactive, PKD1 inh -4, Insulin prom inh -3, GALR2 ag -3.1, RGS16-Gao 102, Insulin prom inh cell count 100 and HSV replic up primary fold 0.68.
Screening Cc1nn(CC(=O)NC(C)c2ccccc2)c(C)c1[N+](=O)[O-] (configuration not stated) returned HSV replic up inactive, PKD1 inh 0, Insulin prom inh 25, RGS16-Gao 100, Insulin prom inh cell count 111 and HSV replic up primary fold 1.
Screening CCOc1cc(C(=O)NC(C)COC)cc(OCC)c1OCC (configuration not stated) returned HSV replic up inactive, PKD1 inh 1, Insulin prom inh 25, GALR2 ag -1.5, RGS16-Gao 85, Insulin prom inh cell count 124 and HSV replic up primary fold 0.93.
Screening Cc1ccc(Sc2nc(-c3ccccc3)ccc2C#N)cc1 returned HSV replic up inactive, PKD1 inh 0, GALR2 ag -3.6, RGS16-Gao 105 and HSV replic up primary fold 0.95.
Screening Cc1ccc(NS(=O)(=O)c2ccccc2[N+](=O)[O-])cc1C returned HSV replic up inactive, PKD1 inh 4, Insulin prom inh 0, RGS16-Gao 111, Insulin prom inh cell count 83 and HSV replic up primary fold 1.1.
For CCC(C)(C)n1nnnc1C(C(C)C)N1CCSCC1 (configuration not stated) the results were HSV replic up inactive, PKD1 inh -7, Insulin prom inh -52, GALR2 ag -2.1, RGS16-Gao 102, Insulin prom inh cell count 73 and HSV replic up primary fold 1.
`C[C@H](NC(=O)OC(C)(C)C)c1nnc(SCC(N)=O)o1` gave HSV replic up inactive, PKD1 inh -1, GALR2 ag 0.3, RGS16-Gao 101 and HSV replic up primary fold 0.76.
`COc1cccc(C2SCC(=O)N2c2cccc(C)c2)c1OC` (configuration not stated) gave HSV replic up inactive, PKD1 inh -7, Insulin prom inh -12, GALR2 ag -0.6, RGS16-Gao 101, Insulin prom inh cell count 156 and HSV replic up primary fold 0.96.
O=C(NCc1ccco1)C(c1cccs1)N(C(=O)C1COc2ccccc2O1)c1cccc(O)c1 (configuration not stated) was read as HSV replic up inactive, PKD1 inh 11, GALR2 ag -3.5, RGS16-Gao 99 and HSV replic up primary fold 1.
CCC(CC)C(=O)c1c[nH]c(C(=O)N2CCN(c3ccc(OC)cc3)CC2)c1 was read as HSV replic up inactive, PKD1 inh -5, Insulin prom inh -94, RGS16-Gao 100, Insulin prom inh cell count 56 and HSV replic up primary fold 0.88.
For COc1ccc(C(=O)COC(=O)CNC(=O)c2cccc(OC(F)F)c2)cc1 the results were HSV replic up inactive, PKD1 inh -9, RGS16-Gao 103 and HSV replic up primary fold 0.91.
CCOc1ccc(/C=C/C2=NNC(=O)CC2)cc1 was read as HSV replic up inactive, PKD1 inh 0, RGS16-Gao 107 and HSV replic up primary fold 0.94.
For COc1ccc(NC(=O)CSc2ccc3c4c(cccc24)C(=O)c2ccccc2-3)cc1 the results were PKD1 inh -6, Insulin prom inh -111, GALR2 ag -1.8, RGS16-Gao 102 and Insulin prom inh cell count 94.
For CCCCOC(=O)Nc1ccc(S(=O)(=O)Nc2ccc([N+](=O)[O-])cc2)cc1 the results were HSV replic up inactive, PKD1 inh -9, Insulin prom inh -41, GALR2 ag -1.0, RGS16-Gao 99, Insulin prom inh cell count 155 and HSV replic up primary fold 1.
CC1CCN(CCCn2c(=S)[nH]c3ccc(N4CCOCC4)cc3c2=O)CC1 was read as HSV replic up inactive, PKD1 inh 13, Insulin prom inh -12, GALR2 ag -4.2, RGS16-Gao 98, Insulin prom inh cell count 128 and HSV replic up primary fold 0.73.
For O=C(CNS(=O)(=O)c1ccccc1Br)OCC(=O)N1CCc2ccccc21 the results were HSV replic up inactive, PKD1 inh 0, Insulin prom inh 12, GALR2 ag -1.0, RGS16-Gao 63, Insulin prom inh cell count 125 and HSV replic up primary fold 0.95.
Cc1cccc(C)c1Nc1c(-c2ccccn2)nc2ccccn12 was read as HSV replic up inactive, PKD1 inh -4, Insulin prom inh 25, RGS16-Gao 115, Insulin prom inh cell count 155 and HSV replic up primary fold 0.73.
Screening Cc1ccc(NC(=O)CN2CCC(C(=O)c3ccc4c(c3)OCCO4)CC2)cc1 returned HSV replic up inactive, PKD1 inh -3, GALR2 ag -2.2, RGS16-Gao 92 and HSV replic up primary fold 0.89.
For CCOc1ccc(-c2cc(C(=O)OC)nc3c2c(=O)n(C)c(=O)n3C)cc1 the results were HSV replic up inactive, RGS16-Gao 98 and HSV replic up primary fold 0.76.
`CCCCC1(C)NC(=S)N2N1C(=S)NC2(C)CCCC` (configuration not stated) gave HSV replic up inactive, RGS16-Gao 102 and HSV replic up primary fold 1.1.
Screening Cc1ccc(-n2c(NN)nc3ccccc3c2=O)c(C)c1 returned HSV replic up inactive, PKD1 inh -15, Insulin prom inh -48, GALR2 ag -0.7, RGS16-Gao 115, Insulin prom inh cell count 91 and HSV replic up primary fold 0.99.
`C[C@H](NC(=O)CCCn1nnc2ccccc2c1=O)C(=O)O` gave HSV replic up inactive, RGS16-Gao 91 and HSV replic up primary fold 1.1.
`CCOC(=O)c1ccc(N2C(=O)c3n[nH]c(C)c3C2c2ccccn2)cc1` (configuration not stated) gave HSV replic up inactive, PKD1 inh -12, GALR2 ag -0.3, RGS16-Gao 102 and HSV replic up primary fold 1.
Screening COc1ccc(OC)c(NC(=O)CN(Cc2ccccc2)S(C)(=O)=O)c1 returned HSV replic up inactive, PKD1 inh -6, Insulin prom inh -24, RGS16-Gao 96, Insulin prom inh cell count 120 and HSV replic up primary fold 1.1.
For C(=N\Nc1nc(-c2ccccn2)nc2ccccc12)/c1ccccc1 the results were HSV replic up inactive, RGS16-Gao 98 and HSV replic up primary fold 0.64.
N#C/C(=C\c1cc(O)c(O)c(O)c1)C(N)=O was read as HSV replic up inactive, RGS16-Gao 106 and HSV replic up primary fold 0.64.
O=C(c1cccs1)N1CCN(CCCc2ccccc2)CC1 was read as HSV replic up inactive, PKD1 inh 3, Insulin prom inh 19, GALR2 ag -3.5, RGS16-Gao 108, Insulin prom inh cell count 111 and HSV replic up primary fold 1.1.

Source: PubChem BioAssay
